HTT promoter inh: Primary qHTS for Identification of Small Molecule Inhibitors of Huntingtin Promoter Activity; 48,000 compounds, 0.93% hits; HEK293 HTT promoter firefly luciferase reporter (activity 0% = vehicle and -100% = no light), 24 h; AID 1508623, 2021; Potency, µM (series often up to 57.5 µM), inactives show at the highest dose activity change, negative = inhibition, hits mostly inhibitors; active = well fitted inhibition curve with a large enough effect; inconclusive = small, poorly fitted or top-dose-only effect; inactive = no such curve, though single readings can be large or run the other way; note: nearly all actives have a fitted effect of over 50% in size
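Luminescence was read after Dual-Glo reagent and a 10 min room-temperature incubation. Values were normalized to vehicle (0% activity) and zero RLU (-100% activity). Reporter HEK293 cells had been exposed to compounds (up to 57.5 uM final) for 24 h.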
PMP22 txn: Cell-based coincidence reporter assay to measure PMP22 gene transcription in S16 Pmp22-F2sN cells - Primary screen; S16 Pmp22-F2sN Schwann cells (luciferase reporters placed in the Pmp22 gene), FLuc/NLuc coincidence luminescence, 24 h; 43,000 compounds, 2% hits; Potency, µM (top dose mostly 57.5 µM), for inactives: top-dose activity change, negative = inhibition, most hits filed as inhibitors; active = clear falling dose curves in both reporters; inconclusive = both reporters move, but less clearly or upward; inactive = either reporter flat; the % is the NLuc reporter signal; note: % is set by controls: 0 for no effect and ±100 for the full control effect; some results filed as inactive show a strong effect at the top dose
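Reporter cells (S16 Pmp22-F2sN, 500–1,000 per well) exposed to compounds for 24 h, 37C, 5% CO2; lysis with FLuc read after 10 min, then Stop&Glo and NLuc read after 10 min.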
* marks the source's active call; other numbers are inactive results; ? = inconclusive; · = no result given; [ ] = another dose, or the depositor's remark. Potency is the fitted concentration of half-maximal effect.

SMILES	HTT promoter inh	PMP22 txn
Cc1ccc(Cn2ccn(Cc3ccccc3F)c(=O)c2=O)cc1	-10%	-29%
O=C(CSc1nnc(-c2cccs2)o1)Oc1ccccc1Cl	-1%	-5%
O=C(Nc1ccc(Cl)cc1F)c1cc(S(=O)(=O)NC2CCCCCC2)ccc1F	?	-11%
COC(=O)c1ccccc1NC(=O)Cn1c(=O)n(Cc2ccc(C(=O)NCc3ccc4c(c3)OCO4)cc2)c(=O)c2ccccc21	-6%	-9%
COc1cc(OC)c(NC(=O)CCc2nc(C3=CCN(Cc4cccc(Cl)c4)CC3)no2)cc1Cl	18%	5%
Cc1cccc(NC(=O)N2CCC3(CC2)Oc2ccccc2C(=O)N3Cc2ccccc2F)c1C	-1%	-20%
O=C(NCc1ccc2c(c1)CCN2C(=O)c1ccncc1)c1ccccc1F	-25%	?
O=C(Nc1ccc(Br)c2cccnc12)c1cccc2ccccc12	-1%	16µM*
Cc1cc(C)c(NC(=O)CSc2nc3nccnc3c(=O)n2CCc2c[nH]c3ccccc23)c(C)c1	-12%	8%
CC(=O)N1c2ccc(S(=O)(=O)N3CCCCCC3)cc2CC1C(=O)NCc1ccccc1 (stereo unspecified)	-22%	?
Cc1ccc(CCNS(=O)(=O)c2cc(-c3cc(C)no3)ccc2C)cc1	?	20%
CCOC(=O)C1CCCN(C(=O)c2cc3c(=O)[nH]c4ccc(C)cc4c3s2)C1 (stereo unspecified)	-30%	?
COc1ccc(S(=O)(=O)c2c(O)c3ccc(C(=O)Nc4ccccc4)cc3[nH]c2=O)cc1	-5%	18%
COc1ccccc1CNC(=O)CC1N=C2c3ccccc3N=C(SCC(=O)Nc3ccc(F)cc3)N2C1=O (stereo unspecified)	0%	10%
CCS(=O)(=O)N1CC(=O)N(c2cc(Cl)ccc2C)C(C)(C(=O)NC2CCCCCC2)C1 (stereo unspecified)	7%	-4%
CCCOc1ccc(C(=O)N(Cc2cccs2)c2ccc(C)cc2)cc1	-14%	0%
CCCN(CCC)CCNC(=O)C1CCCN(S(=O)(=O)c2cccc3nsnc23)C1 (stereo unspecified)	-1%	-21%
O=C(Cn1c(=O)n(Cc2ccco2)c(=O)c2oc3ccccc3c21)Nc1ccc(F)c(Cl)c1	-18%	?
Cc1ccc(S(=O)(=O)c2nc(-c3ccc(F)cc3)oc2SCC(=O)NC2CCCCC2)cc1	-16%	0%
COc1ccc(OC)c(CCNC(=O)c2cnn(-c3ccccc3)c2C2CCN(C(=O)OC(C)(C)C)CC2)c1	-16%	?
O=C(CC1(O)C(=O)N(CCc2ccccc2)c2ccc(Br)cc21)c1ccc(F)cc1 (stereo unspecified)	?	?
O=C(NC1CC(=O)N(c2ccccc2)C1)C1CCCCC1 (stereo unspecified)	-24%	23%
CC(=O)c1cccc(NC(=O)c2cc3sc(Cl)cc3n2C)c1	24%	-14%
CCOC(=O)c1c(-c2ccc(OC)cc2)oc2ccc(OCc3ccc(Br)cc3)cc12	-4%	6%
Cc1ccc(N2CC(NC(=O)c3cc4ccccc4o3)CC2=O)cc1 (stereo unspecified)	-15%	-11%
Cc1ccc(C)c(CN2C(=O)c3ccccc3S(=O)(=O)c3ccc(C(=O)OCC4CCCO4)cc32)c1 (stereo unspecified)	-15%	-6%
COc1ccc(Cl)cc1NC(=O)Cn1c(=O)n(Cc2ccco2)c(=O)c2ccc(C(=O)NC3CCCC3)cc21	-13%	0%
Cc1ccc2c(=O)cc(C(=O)Nc3nnc(C)s3)oc2c1	-1%[11.5 µM]	-40%
CCOC(=O)c1ccc(NC(=O)c2oc(=O)c3ccccc3c2-c2ccccc2)cc1	-7%	5%
Cc1ccc(CNC(=O)Cn2c(=O)cc(C(F)(F)F)c3c(C)nn(C)c32)cc1	-18%	-14%

Some of these compounds in order of heavy-atom count, descending:
SMILES	HTT promoter inh	PMP22 txn
COc1ccc(OC)c(CCNC(=O)c2cnn(-c3ccccc3)c2C2CCN(C(=O)OC(C)(C)C)CC2)c1	-16%	?
CCS(=O)(=O)N1CC(=O)N(c2cc(Cl)ccc2C)C(C)(C(=O)NC2CCCCCC2)C1 (stereo unspecified)	7%	-4%
CCCN(CCC)CCNC(=O)C1CCCN(S(=O)(=O)c2cccc3nsnc23)C1 (stereo unspecified)	-1%	-21%
Cc1ccc(N2CC(NC(=O)c3cc4ccccc4o3)CC2=O)cc1 (stereo unspecified)	-15%	-11%
O=C(Nc1ccc(Br)c2cccnc12)c1cccc2ccccc12	-1%	16µM*
CC(=O)c1cccc(NC(=O)c2cc3sc(Cl)cc3n2C)c1	24%	-14%
O=C(NC1CC(=O)N(c2ccccc2)C1)C1CCCCC1 (stereo unspecified)	-24%	23%

(listing goes on)
SMILES	HTT promoter inh	PMP22 txn
O=C(O)c1c(Cl)c(Cl)c(Cl)c(Cl)c1-c1c2cc(I)c(=O)c(I)c-2oc2c(I)c(O)c(I)cc12	-23%	·
Cc1ccc(Nc2nnc(-c3ccc(C)c(S(=O)(=O)N4CCN(C)CC4)c3)c3ccccc23)cc1	-14%[11.5 µM]	?
COc1ccc(Cn2c(SCc3ccc(C(=O)NC(C)c4ccccc4)cc3)nc3cccnc32)cc1 (stereo unspecified)	-12%	-27%
CCCn1c(=O)sc2cc(NC(=O)COc3ccc(Cl)cc3)ccc21	-20%	?
Cc1ccccc1C(=O)Nc1cc(-c2ccc(Cl)cc2)nn1-c1ccccc1	10%	-47%
CC(C)Oc1ccc(CNC(=O)C2COc3ccccc3C2)cc1 (stereo unspecified)	19%	-1%
CCc1ccccc1N(C)C(=O)Nc1cn(CC(C)C)c(=O)c2ccccc12	-10%	-2%
O=C(c1cnc2c(c1)COc1ccccc1-2)c1ccccc1O	13%	-49%
COc1ccc(-c2cn3nc(N4CCC(C(=O)NCc5ccccc5F)CC4)sc3n2)cc1	21%	-6%
CCCCN(CC)CCCNC(=O)c1cn(C)c(=O)c2c1c1ccccc1n2C	-8%	-24%
CN[C@@H](C)C(=O)N[C@H]1CN(C(=O)CC(C)C)CC[C@H]2CC[C@@H](C(=O)NC(c3ccccc3)c3ccccc3)N2C1=O	-18%	·
Cc1ccc(N2C(=O)CS(=O)(=O)C23C(=O)N(Cc2ccccc2C)c2ccccc23)cc1Cl (stereo unspecified)	?	-13%
COc1ccc(OC)c(NC(=O)CCNS(=O)(=O)c2cccc3nsnc23)c1	-5%	-1%
Cc1cccc(CNC(=O)c2ccc(C)c(-n3c(C)nc4cccnc43)c2)c1	-14%	-10%
Cc1ccc(CNC(=O)C(NS(=O)(=O)c2cccs2)C(C)C)cc1 (stereo unspecified)	-10%	-18%
O=C(Nc1ccc2oc(-c3cccc4c(Br)cccc34)nc2c1)c1ccc(F)cc1	-12%[11.5 µM]	-2%
O=C(OCc1cc(=O)n2nc(C3CC3)sc2n1)c1cccc(NC(=O)c2ccccc2Cl)c1	-18%	?
CCC(CC)c1nn2c(=O)cc(COc3ccc(NC(=O)c4ccccc4Cl)cc3)nc2s1	-8%	10%
CO[C@H]1C[C@@H]2CC[C@@H](C)[C@@](O)(O2)C(=O)C(=O)N2CCCC[C@@H]2C(=O)O[C@H]([C@H](C)C[C@@H]2CC[C@H](OC(=O)C(C)(CO)CO)[C@H](OC)C2)CC(=O)[C@H](C)C=C(C)[C@@H](O)[C@@H](OC)C(=O)[C@H](C)C[C@H](C)C=CC=CC=C1C	-17%	·
O=C(Nc1ccc(F)cc1)c1ccc(-n2cnc3cccnc32)cc1	-10%	-21%
COc1ccc(OC)c(NS(=O)(=O)c2ccc3c(c2)CCCN3C(=O)C2CCC2)c1	?	-22%
CCn1cc(C(=O)N2CCN(c3cccc(C)c3)C(C)C2)c(=O)c2cc(S(=O)(=O)N3CCOCC3)ccc21 (stereo unspecified)	-5%	-42%
COc1cccc(N2C(=O)C(CC(=O)Nc3ccccc3)N(CCc3sccc3C)C2=O)c1 (stereo unspecified)	?	?
CCn1c(C(=O)NCc2ccccc2OC)cc2sccc21	-22%	-8%
CN(C)CCNC(=O)CCCn1c(=O)c2cccn2c2ccccc21	-9%	-27%
Cc1ccccc1NC(=O)CSc1nc(-c2ccc(F)cc2)c2cccc(C)c2n1	20%	-13%
COc1ccc(Cl)cc1NC(=O)N(C)CCc1c(C)nn(C)c1C	27%	-5%
O=C(CCCn1c(=O)c2ccccc2n(Cc2cccc(Cl)c2)c1=O)NCCc1ccc(Cl)cc1	?	?
CCN(C(=O)CSc1nc2ccccc2nc1Cc1ccccc1OC)c1ccccc1	1%	-31%
CCOc1ccccc1N(C)C(=O)Cn1cnc2sc(C)c(S(=O)(=O)N3CCC(C)CC3)c2c1=O	-23%	5%
CC1(c2ccc(Cl)cc2)CC(C)(C)N(C(=O)c2cccc(F)c2)c2ccccc21 (stereo unspecified)	?	-37%
N#Cc1c(C(F)(F)F)cc(-c2cccs2)nc1SCC(=O)Nc1ccc(Cl)cc1	-8%	19µM*
CC1=C(C(=O)OCc2ccc(C)cc2)C(c2ccccc2Cl)CC(=O)N1 (stereo unspecified)	?	14%
COc1ccc(NC(=O)Cn2c(=O)oc3cc(S(=O)(=O)N4CCCC4)ccc32)cc1OC	?	-29%
Cc1ccc2oc(C(=O)Nc3ccc(S(=O)(=O)N(C)Cc4ccccc4)cc3)cc(=O)c2c1	-8%[11.5 µM]	?
Cn1c(=O)oc2cc(S(=O)(=O)N3CCCC(C(=O)N4CCN(c5ccc(F)cc5)CC4)C3)ccc21 (stereo unspecified)	?	?
Cc1ccc2[nH]c(=O)c3cc(C(=O)N(CCCOC(C)C)Cc4ccco4)sc3c2c1	?	?
CN(C)c1ccc(C(=C2C=CC(=[N+](C)C)C=C2)c2ccccc2)cc1	?	·
CC1CCc2c(sc3nnn(CC(=O)Nc4ccccc4Cl)c(=O)c23)C1 (stereo unspecified)	-15%	-25%
Cc1cccc(NC(=O)CCCn2c(C)c3cnn(-c4ccccc4)c(=O)c3c2C)c1C	-17%	-22%
COc1cc(OC)c(C2C(C(=O)Nc3ccccc3)=C(C)Nc3ncnn32)cc1OC (stereo unspecified)	-4%	12%
CCOc1cc(CNS(=O)(=O)c2ccc3c(c2)CC(=O)N3C)cc(OCC)c1OCC	?	-10%
COC(=O)c1ccc(NC(=O)c2cc(=O)c3ccc(C)cc3o2)cc1	2%[11.5 µM]	6%
Cc1cccc(-c2nc3scc(CCNC(=O)c4ccccc4Cl)n3n2)c1	-13%	44%
Cc1cccc(CNC(=O)c2ccc3oc(=O)n(Cc4ccccc4)c3c2)c1	?	?
NC(=O)c1ccccc1NC(=O)Cn1nc(Cc2cccnc2)c2ccccc2c1=O	-16%	-6%
CCN1CCN(c2nnc(-n3cccc3C(=O)Nc3cccc(OC)c3)s2)CC1	5%	-2%
CCN(CC)c1ccc(NC(=O)c2cc(C)nc3c2c(C)nn3-c2cccc(F)c2)c(C)c1	-9%	-17%
COc1ccc(-c2nc3cc(C(C)C)ccc3o2)cc1NC(=O)c1ccc(C)c(Cl)c1	4%	-27%
CCOc1ccc(NC(=O)[C@H](Cc2ccccc2)N2Cc3ccccc3C2=O)cc1	-17%	10%
COc1ccc(C(=O)Nc2ccc3nc(N4CCCCC4)cc(C)c3c2)cc1OC	-18%	?
Cc1ccc(Cl)cc1Nc1sc(C(=O)c2ccccc2)c(N)c1S(=O)(=O)c1ccccc1	5%	-11%
CCSc1nnc(NC(=O)c2cc(=O)c3cc(C)c(C)cc3o2)s1	-9%	9%
CCN(Cc1ccccc1)C(=O)CCc1c(C)nc2c(c(C)nn2-c2ccc(C)c(C)c2)c1C	-1%	1%
CC(=O)c1ccc(NC(=O)c2ccc(NC(=O)CCS(=O)(=O)c3cccs3)cc2)cc1	63%[activator]	13%
COc1cc(C(=O)Nc2cccc(OCc3cc(=O)n4c(C)csc4n3)c2)cc(OC)c1OC	25%	-8%
COc1ccc(NC(=O)Cn2c(SCc3ccc(F)cc3)nc3cccnc32)c(OC)c1	-29%	?
O=C(NCc1noc2ccccc12)N1CCN(c2ccccc2)CC1	12%	3%
COc1ccc(CCNCc2c(C(=O)O)c(C)n(Cc3cccc(C)c3)c2C)cc1OC	-14%	-33%
CCN1C(=O)C(Cc2nc3ccccc3c(=O)n2-c2ccc(OC)cc2)c2ccccc21 (stereo unspecified)	8%	-3%

Remaining list, next part:
SMILES	HTT promoter inh	PMP22 txn
O=C(Nc1cccc(Br)c1)c1cc(-c2ccc3c(c2)OCCO3)on1	-28%	-11%
O=C(Nc1ccc2oc(-c3ccncc3)nc2c1)c1ccccc1Cl	-18%	20%
COc1ccc(Br)cc1C(=O)Nc1ccc(-c2nc3cc(Cl)ccc3o2)cc1	-6%	-8%
CCOc1ccc(NC(=O)CCn2c(-c3ccc(F)cc3)cc(C(C)=O)c2C)cc1	?	-28%
